TRPML1 inh = qHTS for Inhibitors of the Human Mucolipin Transient Receptor Potential 1 (TRPML1). Mucolipin-1 (Homo sapiens), Q9GZU1. TRPML1-inducible cells, Ca2+ dye fluorescence, FDSS; stronger effect = lower value; inhibition of EC80 agonist-evoked calcium signal. activity change, negative = inhibition, % (no concentration beside the values). 390,000 compounds, 0.02% hits; in the data active means activity change below about -50%; inconclusive means about -30% to -50%; inactive means above about -30%;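 note: stimulus is agonist 54-4 at its EC80 concentration; % is set by controls: 0 for no effect and ±100 for the full control effect; compound concentration not given in the record; the text of the record puts the active cut at -80%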
Target sequence (Q9GZU1 whole entry, looked up): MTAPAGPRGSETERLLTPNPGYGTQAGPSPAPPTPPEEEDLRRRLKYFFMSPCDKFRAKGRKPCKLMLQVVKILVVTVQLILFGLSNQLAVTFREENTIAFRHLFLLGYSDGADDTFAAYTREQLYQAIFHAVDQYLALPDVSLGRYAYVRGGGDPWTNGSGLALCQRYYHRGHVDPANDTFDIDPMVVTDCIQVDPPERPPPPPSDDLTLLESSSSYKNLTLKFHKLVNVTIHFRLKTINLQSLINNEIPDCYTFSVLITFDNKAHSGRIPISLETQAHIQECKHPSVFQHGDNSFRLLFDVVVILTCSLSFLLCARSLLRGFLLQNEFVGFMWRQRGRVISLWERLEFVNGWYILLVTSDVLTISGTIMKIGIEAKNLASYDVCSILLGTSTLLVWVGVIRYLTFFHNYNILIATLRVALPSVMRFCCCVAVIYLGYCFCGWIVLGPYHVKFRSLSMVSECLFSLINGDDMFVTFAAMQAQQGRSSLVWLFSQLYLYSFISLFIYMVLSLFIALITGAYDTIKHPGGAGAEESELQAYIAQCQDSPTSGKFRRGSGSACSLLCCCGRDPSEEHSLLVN
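TRPML1-DL cells, Tet-induced overnight (~16 h, 37 °C) at 1,500 cells/well, were loaded with Ca8 no-wash dye plus quencher for 45-90 min at room temperature. Compounds were pinned during FDSS kinetic reading; agonist 54-4 at EC80 (4 uM final) then added.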
ClpP mod = qHTS Assay for Activators of ClpP; Potency, µM (highest dose often 57.5 µM), inactives show top-dose activity change, negative = active; purified B. subtilis ClpP, FRET peptide cleavage, 20 min; 340,000 compounds, 1.9% hits; ATP-dependent Clp protease proteolytic subunit (Bacillus subtilis (strain 168)), P80244; AID 651965, 2013; active = well fitted falling curve with a large enough effect; inconclusive = small, poorly fitted or top-dose-only effect; inactive = no such curve, though single readings can be large or run the other way; note: potency is the fitted concentration of half-maximal effect; the source files actives as falling curves though it sought activators and does not explain the sign; nearly all actives have a fitted effect of over 65% in size; many hits overshoot -100%
Target sequence (P80244 whole entry, looked up): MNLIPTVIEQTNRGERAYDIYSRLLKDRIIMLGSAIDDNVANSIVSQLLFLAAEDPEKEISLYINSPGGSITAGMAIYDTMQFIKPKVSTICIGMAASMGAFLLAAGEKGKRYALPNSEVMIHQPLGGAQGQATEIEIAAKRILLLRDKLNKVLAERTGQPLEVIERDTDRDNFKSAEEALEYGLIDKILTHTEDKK
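ClpP 10 microg/mL final, pH 8 Tris/KCl buffer with BSA, glycerol, Tween-20; compound pinned in; FRET-FV substrate; RT 20 min; Ex320/Em430; ΔFRET vs ADEP 5.8 microM, DMSO, no enzyme.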
Menin-MLL FL inh = qHTS Assay for Inhibitors Targeting the Menin-MLL Interaction in MLL Related Leukemias: Competition With Fluorescein Labeled MLL-derived Peptide; AID 1766, 2009; Fluorescence polarization, fluorescein-MLL peptide displacement from menin; FP activity change, % at 61.4 µM; 290,000 tested, under 10 active; inconclusive = falling polarisation curve, or a change in total fluorescence; inactive = total fluorescence flat and polarisation flat or rising; no compound was filed as active; the % refers to the polarisation; negative = inhibition;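 note: % of control where 0% means no effect; inhibitors lower the polarisation; unlabelled MLL peptide was the positive control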
gsp antagonist = qHTS for Antagonists of gsp, the Etiologic Mutation Responsible for Fibrous Dysplasia/McCune-Albright Syndrome: qHTS. 340,000 compounds, 0.4% hits. gsp-mutant cells, cAMP HTRF, 30 min; control for the full effect not named in the record. Potency, µM (highest dose often 76.9 µM), for inactives: top-dose activity change, negative = inhibition, most hits filed as inhibitors; active = falling curve of any shape with a large fitted effect; inconclusive = falling curve, mostly with a smaller effect; inactive = flat or rising curve; cell line not stated here;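 note: intracellular cAMP measured with PDE inhibitor Ro 20-1724 present during compound exposure; potency is the fitted concentration of half-maximal effect; % is set by controls: 0 for no effect and ±100 for the full control effect; nearly all actives have a fitted effect of over 65% in size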
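Cells, 2000/well, grown 16–24 h in DMEM 10% FBS with 0.5 mg/ml G418, then compounds plus […] (300 uM addition stock), 30 min at 37C. cAMP read by HTRF (cAMP-d2 and anti-cAMP antibody-K in lysis buffer) after 30 min RT.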
TRPML1 ag = qHTS for Agonists of the Human Mucolipin Transient Receptor Potential 1 (TRPML1); TRPML1-expressing cells, Ca2+ dye fluorescence, FDSS; host cell line not named in the record; reference of the full effect not given here; AID 624414, 2012; activation, % (concentration not given with the values); 410,000 compounds, 0.12% hits; in the data active = activation above about 50%; inconclusive = about 30% to 50%; inactive = below about 30%; note: 0% is about no effect; the text of the record puts the active cut at 80%
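In this qHTS format, compounds were pin-transferred onto Ca8-dye-loaded TRPML1-DL cells induced with Tet overnight, and intracellular Ca2+ fluorescence was recorded kinetically for 110 s after a 10 s baseline. A subsequent 4uM final 54-4 (EC80) addition followed by a second 110 s read served as the antagonist phase.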
gsp agonist = qHTS for Agonist of gsp, the Etiologic Mutation Responsible for Fibrous Dysplasia/McCune-Albright Syndrome: qHTS; gsp mutant cells, cAMP HTRF, 30 min; control for the full effect not named in the record; Potency, µM (top dose mostly 76.9 µM), without a hit: at the highest dose activation (cAMP increase), actives largely listed as activators; 340,000 compounds, 0.13% hits; active = well fitted activation curve with a large enough effect; inconclusive = small, poorly fitted or top-dose-only effect, or another doubt; inactive = no such curve, though single readings can be large or run the other way; cell line not stated here;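 note: phosphodiesterase inhibitor Ro 20-1724 added with compounds to block cAMP breakdown; potency is the fitted concentration of half-maximal effect; nearly all actives have a fitted effect of over 60% in size; about a fifth of the inactives were tested at one dose only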
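Cells in DMEM/10% FBS with G418 were pretreated with compounds in DMSO plus […] (300 uM stock) for 30 min at 37C. cAMP was measured by HTRF (cAMP-d2 plus anti-cAMP antibody-K) after 30 min at room temperature.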
An asterisk follows results filed as active; ? = inconclusive; / = no result given; & = joins results of further samples; [ ] = dose if it differs, or a comment.

SMILES	TRPML1 inh	ClpP mod	Menin-MLL FL inh	gsp antagonist	TRPML1 ag	gsp agonist
Cc1ccc(S(=O)(=O)NCC(=O)OCc2ccccc2)cc1	-8	/	-0.1	-14%	-1.1	1%
CCN(CC)CCNC(=O)Cc1c(C(=O)O)n(CC)c2ccccc12	6	-21%	2.0	5%	0.7	-24%
O=C(NCCNS(=O)(=O)c1cccc(C(F)(F)F)c1)c1cc(OCC(F)(F)F)ccc1OCC(F)(F)F	-17	-8.4%	5.0	4%	-0.4	0%
O=C(c1ccc2ccccc2c1)N1CCN(c2ccc([N+](=O)[O-])c(N3CCOCC3)c2)CC1	22	0.5%	0.9	-24%	0.9	2%
CCN1C(=O)[C@H]2[C@H]3CN=C(SCc4ccccc4)N3[C@@](CC)(C(=O)OC)[C@H]2C1=O	1	-0.2%	/	5%	0.7	/
Cc1ccc(S(=O)(=O)N2CCOCC2)cc1NC(=O)CSc1nc(N)cc(=O)[nH]1	12	0.0%	6.7	17%	0.8	27%
COc1cc(/C=C2/SC(=S)N(CC3CCCO3)C2=O)ccc1O (centres undefined)	3	-9.9%	?	?	?	-1%[15.4 µM]
CC(=O)c1c(C)[nH]c(C(=O)NCc2ccccc2)c1C	6	-1.5%	-0.3	1%	-0.6	10%
CC(C)C(=O)Nc1c(-c2ccccc2Cl)c(=O)c2ccccc2n1C	/	-16%	0.0	10%	/	-3%
C=CCNC(=O)C(C#N)c1nc2ccccc2nc1N1CCCCCC1 (centres undefined)	-6	?	?	-14%	3.7	-10%
CCOCC(=O)Nc1nc(-c2ccccc2)c(CC)s1	-8	-1.5%	4.1	-13%	0.2	1%
Cc1nc2ccc(NC(=O)c3ccc(Cl)nc3)cc2s1	3	-0.7%	-1.1	-4%	-0.9	17%
COc1ccccc1CN1CCNC(=O)C1CC(=O)NC1CCCCCC1 (centres undefined)	0	-4.5%	5.6	-4%	-0.6	-7%[15.4 µM]
FC(F)(F)c1nnc2sc(-c3cccs3)nn12	-10	28µM*	-2.2	7%	0.2	13%
Cc1ccc(S(=O)(=O)N2CCCCC2)cc1NC(=O)CSc1nnc(N)s1	47	0.4%	-2.8	-10%	0.1	27%
O=C1/C(=C/c2ccccc2)SC(=S)N1C1CCS(=O)(=O)C1 (centres undefined)	3	0.1%	0.6	5%	4.4	?
COc1ccc(C)cc1Nc1ncnc2c1nnn2Cc1ccccc1Cl	7	8.6%	/	/	0.0	-21%
CN(C(=O)c1cccc(NC(=O)Cc2cccc(NC(=O)C3CCCN(C(=O)C4CCCC4)C3)c2)c1)C1CC1 (centres undefined)	-5	-0.8%	/	-4%	-0.6	/
FC(F)(F)c1ccc(Cl)c(-n2c(-c3cc(-c4ccco4)[nH]n3)n[nH]c2=S)c1	7	1.2%	5.1	-14%	-0.8	-10%[15.4 µM]
COc1ccc(Nc2ncnc3c2oc2ccccc23)cc1	10	-1.1%	1.4	-11%	-0.5	7%
O=C(NNC(=O)c1sccc1-n1cccc1)Nc1ccc(F)cc1	-3	/	-0.1	-4%	-0.3	15%
CCOC(=O)C1CCN(C(=O)CSc2n[nH]c(=O)[nH]c2=O)CC1	-10	-1.6%	2.6	-11%	-0.3	?
O=C(CSc1nnnn1-c1ccccc1F)NNC(=O)c1ccco1	6	-0.7%	0.8	6%	-0.3	-9%
O=C(O)c1cccc2c1-c1ccc(Cl)cc1C2	8	?	/	-8%	1.6	28%
CC(/C=N/Nc1nc(C)cc(=O)[nH]1)=C\c1ccccc1	-19	-6.5%	-1.6	-24%	1.1	-7%
NC(=S)N/N=C/c1ccccc1OCCSc1ccc(Cl)cc1	26	-22%	1.2	6%	4.1	-3%
COc1ccc(C)cc1NC(=O)CN(C)S(=O)(=O)c1ccc2c(c1)n(C)c(=O)c(=O)n2C	-2	-5.8%	/	-9%	-1.1	?
COc1ccc(OC)c(C2C(C(=O)c3ccco3)=C(O)C(=O)N2CC2CCCO2)c1 (centres undefined)	1	/	5.8	6%	-0.6	21%[15.4 µM]
O=C(c1cc2c(=O)oc3ccccc3c2s1)N1CCN(c2cccc(Cl)c2)CC1	-12	-3.3%	/	/	-0.8	/
COc1ccc(-c2cn3ccccc3n2)cc1	24	4.1%	4.9	3%	-1.0	0%
C[C@H](NC(N)=O)C(=O)Nc1ccc2c(c1)OCO2	3	-0.7%	3.9	-10%	0.0	-22%
O=C(CCCn1c(=O)c2ccccc2n(CC(=O)Nc2cccc(C(F)(F)F)c2)c1=O)NCc1ccc2c(c1)OCO2	1	-4.3%	/	/	-0.7	/
c1ccc(C2[C@H]3CN(Cc4cccnc4)[C@H](c4ccccc4)C34CC2(c2cccnc2)C4)cc1 (some centres undefined)	-5	-2.9%	-0.4&-1.5	-20%	3.8	/
CCn1c(=O)c(C(=O)Nc2ccc(C)cc2C)c(O)c2ccccc21	-3	0.5%	4.9	11%	-0.1	1%[15.4 µM]
CCc1ccc(Nc2cc(C(=O)NCCCN(C)c3ccccc3)c3ccccc3n2)cc1	13	-2.4%	/	/	0.4	/
CC1CC(N(C(=O)C2CC2)c2ccccc2)c2ccccc2N1C(=O)C1CC1 (centres undefined)	1	0.9%	0.8	-8%	0.6	-5%
Cc1ccc(C(=O)Nc2nccc(C)n2)cc1	10	0.3%	-1.5	11%	-0.1	-2%[15.4 µM]
CCOc1ccc(CNC(=O)C2CCCN(S(=O)(=O)c3ccc4c(ccn4C)c3)C2)cc1 (centres undefined)	7	-3.2%	/	/	1.2	/
COc1ccc(-c2cn(-c3ccccc3)c3[n+]2CCS3)cc1	9&-7	1.3%&0.4%	5.4	9%&-13%	-0.8&0.5	?
COc1cc(OC)cc(-n2nnnc2SCC(=O)NCc2ccc3c(c2)OCO3)c1	41	0.8%	1.7	-2%	2.0	1%
CCOC(=O)N1CCN(C(=S)NC(=O)c2ccc(F)c(F)c2)CC1	-7	28µM*	-2.9	-25%	0.0	10%[15.4 µM]
Cc1ccc(C)c(N2CCN(C(=O)CN3C(=O)COc4ccc(S(=O)(=O)N5CCCCCC5)cc43)CC2)c1	-2	-1.6%	/	/	0.3	/
Cc1ccccc1NC(=S)NCCO	-6	/	5.1	12%	1.9	6%[15.4 µM]
CCOc1cccc2sc(NC(=O)c3ccc(S(=O)(=O)N4CCc5ccccc54)cc3)nc12	-7	-2.9%	/	/	-0.3	/
Cc1ccc(S(=O)(=O)Nc2ccc(NC(=O)CN3CCCCC3)c(Cl)c2)cc1	-11	-0.5%	0.8	-19%	0.6	-4%
CCn1c(SCC(=O)N2CCOCC2)nc2sc3c(c2c1=O)CCCC3	-5	1.2%	1.6	-8%	0.2	-34%[inhibitor]
NS(=O)(=O)c1ccc(CNC(=O)c2cc(-c3cccnc3)nc3ccc(Cl)cc23)cc1	8	?	/	-4%	-0.5	1%[15.4 µM]
COc1ccc(C(CNC(=O)COc2ccccc2C)N2CCCCC2)cc1 (centres undefined)	11	-2.3%	/	2%	0.6	15%
CCc1ccc2nc(N3CCN(C(=O)C4CC4)CC3)sc2c1	13	0.8%	/	/	1.4	/
CCc1nnc(NC(=O)CCN2C(=O)CCC2=O)s1	19	1.0%	3.6	4%	-0.4	4%
NC(=O)c1nsc(C(=O)N(CCCN2CCOCC2)C(C(=O)NC2CCCCC2)c2ccc(Cl)cc2)c1N (centres undefined)	-14	/	-1.7	14%	-0.4	?
O=C(N/N=C/c1cn(-c2ccccc2)nc1-c1cccnc1)c1cccnc1	-4	1.2%	-2.5	?	0.3	3%
CC(=O)c1cc(NC(=O)c2ccc(Cl)cc2)c(=O)oc1/C=C/N(C)C	-8	-2.8%	?	-3%	?	10%
COc1ccc(-c2cc(C(F)(F)F)nc(NCc3ccccc3)n2)cc1OC	20	4.7%	/	/	2.4	/
CN(C)C1=NCCN1CCc1ccc(F)cc1	18	0.6%	/	1%	-0.3	/
COc1ccc(-c2nc(CC(=O)Nc3cccc(S(=O)(=O)NC4=NCCC4)c3)cs2)cc1	26	3.9%	/	-7%	0.9	18%
Cc1ccc(/C=N/NC(=O)Cc2ccc(Cl)cc2)s1	8	-1.4%	-2.5	2%	-0.4	30%
Cc1cccc(C(=O)NCc2nc3ccccc3n2Cc2ccccc2Cl)c1	-11	-6.6%	/	/	4.8	/
CC(C)CNC(=O)CC(=O)N/N=C/c1ccc(Br)cc1	0	0.1%	-0.8	-1%	-0.1	-63%[inhibitor]
Cc1nc(SCc2ccc(OCCC(C)C)cc2)n[nH]1	-7	-0.6%	1.2	-10%	0.7	-27%

The closing two entries of the section above lead into the next:
SMILES	TRPML1 inh	ClpP mod	Menin-MLL FL inh	gsp antagonist	TRPML1 ag	gsp agonist
CC(C)CNC(=O)CC(=O)N/N=C/c1ccc(Br)cc1	0	0.1%	-0.8	-1%	-0.1	-63%[inhibitor]
Cc1nc(SCc2ccc(OCCC(C)C)cc2)n[nH]1	-7	-0.6%	1.2	-10%	0.7	-27%
CCOc1cc2[nH]c(=S)n(Cc3ccc(C)o3)c(=O)c2cc1OCC	33	0.9%	3.4	15%	0.7	-16%
COc1ccc(-c2c(C#N)c(N)nc3c2c(=O)n(C)c(=O)n3C)cc1Cl	-8	-7.1%	/	18%	1.6	-11%
O=C(Nc1ccc(-c2csc(Nc3cccc(C(F)(F)F)c3)n2)cc1)c1cc([N+](=O)[O-])cc(C(F)(F)F)c1	8	-1.7%	-6.7	10%	-0.9	/
CCOc1ccc(NC(=O)NC2(C(=O)NCc3ccco3)CCCCC2)cc1	4	/	-1.6	-10%	-0.2	10%[15.4 µM]
Cc1cc(C)nc(Nc2ccc(Br)cc2C(=O)O)n1	-8	/	-5.1	-14%	-0.8	5%
CC1CCCCC1NC(=O)CSc1nnc(COc2ccc(Cl)cc2)o1 (centres undefined)	10	/	-2.9	2%	0.4	7%
CNC(=O)C(=O)N/N=C/c1ccccn1	-17	/	-3.5	7%	0.9	?
COc1ccc2[nH]cc(/C=C/c3cc[n+](C)cc3)c2c1	-13	3.2%	?	?	4.4	27%
CCN(CC)S(=O)(=O)c1ccc2[nH]c(=O)cc(C(=O)NCc3ccccc3)c2c1	24	/	-0.3	-18%	0.6	-8%
C=CCNC(=O)CSc1nnc(C(CC)N(C)C)n1C1CCCCC1 (centres undefined)	18	-1.0%	3.3	8%	0.6	?
